Bioassay records: PubChem BioAssay, National Center for Advancing Translational Sciences (NCATS)
VDR inh – blocks the human vitamin D receptor. P11473. VDR-SRC2-3 peptide fluorescence polarization, 2 h. Potency, µM, for inactives: max response, negative = inhibition, usual class: inhibitors. actives 0.93% (n = 400,000); active = well fitted inhibition curve with a large enough effect; inconclusive = small, poorly fitted or top-dose-only effect, or another doubt; inactive = no such curve, though single readings can be large or run the other way; also: series mostly up to about 120 µM
Target sequence (P11473 whole entry, looked up): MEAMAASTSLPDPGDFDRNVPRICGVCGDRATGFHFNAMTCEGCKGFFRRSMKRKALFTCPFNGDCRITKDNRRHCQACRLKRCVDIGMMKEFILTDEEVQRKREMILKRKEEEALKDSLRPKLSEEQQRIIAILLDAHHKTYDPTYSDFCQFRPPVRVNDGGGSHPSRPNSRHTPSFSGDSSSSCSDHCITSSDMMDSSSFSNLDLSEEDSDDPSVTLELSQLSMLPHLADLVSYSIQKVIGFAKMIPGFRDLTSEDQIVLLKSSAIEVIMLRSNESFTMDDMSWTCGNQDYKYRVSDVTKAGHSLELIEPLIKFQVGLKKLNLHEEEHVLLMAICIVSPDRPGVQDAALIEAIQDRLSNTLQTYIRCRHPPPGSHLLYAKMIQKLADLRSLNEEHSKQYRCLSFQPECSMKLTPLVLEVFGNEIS
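Fluorescence polarization assay of small-molecule disruption of VDR binding to coregulator peptide SRC2-3. Compounds and controls pin-transferred, then read after 2 h incubation at ambient room temperature.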
* marks the source's active call; other numbers are inactive results; ? = inconclusive; & = joins results of further samples. % is scaled to controls: 0 for no effect and ±100 for the full control effect; potency is read from the fitted curve at half-maximal effect. The list is partial. The share of hits here may be higher or lower than overall.

SMILES,VDR inh
COCCOc1ccc(C(F)(F)F)cc1NC(=O)c1ccccc1,4%
CCOC(=O)/C(C#N)=N/Nc1ccccc1C#N,-24%
COc1ccc(NC(=O)CSc2nnc(-c3ccncc3)n2CC2CCCO2)c(OC)c1 (stereo not drawn),-7%
Cc1cccc(NC(=O)C2CCCN(c3ncnc4c3nc3n4CCCCC3)C2)n1 (stereo not drawn),-11%
Cc1c(OC(C)C(=O)NCCN2CCOCC2)ccc2c(-c3ccccc3)cc(=O)oc12 (stereo not drawn),-8%
CCOC(=O)CSc1nnc(-c2c[nH]c3ccccc23)n1CC,-10%
Cc1cc(C(=O)COC(=O)c2ccc(O)cc2)c(C)n1CCc1ccc(F)cc1,-18%
COc1cc(/C=C/C(=O)Nc2ccc(OC)c(S(=O)(=O)N3CCOCC3)c2)ccc1OCC#N,26%
O=C(C1CC1)N1CCN(c2ccnc3cc(Cl)ccc23)CC1,-3%
O=C(CSc1nc2c(c(C(F)(F)F)n1)CCc1ccccc1-2)NCc1ccc(F)cc1,-12%
CC(C)(C)c1ccc(S(=O)(=O)NCc2ccc(C(=O)N3CCCC3)cc2)cc1,-1%
O=C(c1ccc(OC2CCN(Cc3ccc(C(F)(F)F)cc3)CC2)cc1)N1CCCCC1,-16%

Overlap with the part before: four entries, then new ones.
SMILES,VDR inh
O=C(C1CC1)N1CCN(c2ccnc3cc(Cl)ccc23)CC1,-3%
O=C(CSc1nc2c(c(C(F)(F)F)n1)CCc1ccccc1-2)NCc1ccc(F)cc1,-12%
CC(C)(C)c1ccc(S(=O)(=O)NCc2ccc(C(=O)N3CCCC3)cc2)cc1,-1%
O=C(c1ccc(OC2CCN(Cc3ccc(C(F)(F)F)cc3)CC2)cc1)N1CCCCC1,-16%
O=C(Cn1c(SCc2ccccc2F)nc2ccncc21)Nc1ccccc1C(F)(F)F,9%
Cc1ccc(S(=O)(=O)N2CCC(C(=O)Nc3nnc(COc4ccccc4)s3)CC2)cc1,0%
CN(C)c1ccc(CNC(=O)C2CCN(S(=O)(=O)c3ccc4c(c3)CCCC(=O)N4)CC2)cc1,-13%
CC(Sc1nnc(-c2ccco2)n1N)C(=O)NCC1CCCO1 (stereo not drawn),-19%
CCOc1cc(/C=N\NC(=O)c2ccc(NC(=O)CC)cc2)ccc1OC(=O)c1ccccc1,0%
O=c1[nH]c2ccc(S(=O)(=O)N3CCCCC3)cc2s1,-18%
CN1CCc2nc3sc(C(=O)Nc4ccccc4C(F)(F)F)c(N)c3cc2C1,9%
CC1(C)OC1(C#N)c1ccccc1 (stereo not drawn),-8%
C/C=C(\C)C(=O)NNC(=O)c1sc(-c2ccccc2)nc1C,-4%
COc1ccc(C2Nc3ccccc3NC3=C2C(=O)CC(C)(C)C3)cc1O (stereo not drawn),?
Cc1oc(-c2cccc(Cl)c2)nc1CS(=O)(=O)CC(=O)NCCN1CCOCC1,3%
Cc1cc(CN2CCN(c3cccc(C)c3C)CC2)cs1,6%

(more compounds)
SMILES,VDR inh
COc1ccc(C(=O)Oc2cccc(/C=N/NC(N)=S)c2)cc1,-2%
Cc1ccc(-n2c(C)csc2=N)cc1,14%
CCOc1ccc(CC(=O)Nc2c(C(=O)c3ccc(C)cc3)oc3ccccc23)cc1OCC,11%
CC(NC(=O)/C(C#N)=C/c1ccc(C(=O)O)cc1)c1ccccc1 (stereo not drawn),?
C[C@@H]1COC(=O)[C@H](CC(=O)OC(C)(C)C)C/C=C\C[C@H](CC(=O)NCCO)C(=O)N1,-5%
COc1ccc2cc1Oc1ccc(cc1)CC1c3c(cc(OC)c4c3Oc3cc5c(cc3O4)CCNC5C2)CCN1C (stereo not drawn),4%
CN(C)c1ccc(C(=O)Nc2nc3c(s2)CCCC3)cc1,-27%
COC(=O)CN1C(=O)S/C(=C/c2ccc(N3CCCCC3)o2)C1=O,32µM*
CC(C)ON(CC(=O)NO)S(=O)(=O)c1ccc(-c2ccccc2)cc1,-1%
Oc1ccc(N=Nc2nc(-c3ccccc3)c(-c3ccccc3)[nH]2)cc1,-10%
COc1ccc(C2CC(c3cccs3)=Nc3ccccc3S2)cc1 (stereo not drawn),-17%
Cc1cc(Cl)ccc1NC(=S)NC1CCCC1,9%

Additional entries follow.
SMILES,VDR inh
CCN(Cc1ccncc1)Cc1ccc(OC)c(OC)c1,6%
CCOc1ccc(NCc2nc3ccccc3n2CCOc2ccc(C)cc2)cc1,-8%
Oc1ccc(CNc2ccccc2O)cc1,3%
CCCC(=O)N(c1ccc2oc3c(c2c1)CCCC3)S(=O)(=O)c1ccc(CC)cc1,11%
Cc1cccc(NC(=O)CCNS(=O)(=O)c2ccc(Cl)cc2)c1,-3%
CCc1sc(C(=O)N2CCN(C(=O)c3ccccc3)CC2)cc1C,-2%
CCN(C(=O)CSc1nnc(-c2ccc3c(c2)OCO3)o1)C1CCS(=O)(=O)C1 (stereo not drawn),0%
CCC(C)/C(C)=N/Nc1ccc(S(N)(=O)=O)cc1[N+](=O)[O-] (stereo not drawn),0%
CCN(CC(=O)Nc1c(F)cccc1F)C(=O)C1CCN(C(=O)c2ccc(F)cc2)CC1,-10%
CCCSc1nc(-c2ccc(OC)cc2)cc(-c2ccccc2OC)c1C#N,?
NC(=O)NOCc1ccccc1,-14%
O=C(NC1CCN(Cc2ccccc2)CC1)C1CCN(S(=O)(=O)c2ccc(Cl)cc2)CC1,11%

Later entries
SMILES,VDR inh
CN1C(=O)c2cccc3c(S(=O)(=O)N(C)C)ccc1c23,-4%
CCC(=O)N(CCc1ccccc1C)Cc1cc2ccc(C)cc2[nH]c1=O,-20%
COc1ccc(N=C2SC(CC(=O)Nc3ccc(F)cc3)C(=O)N2Cc2ccco2)cc1 (stereo not drawn),-21%
Cc1cccc(NC(=O)c2sc(C)nc2C)c1,-5%
COc1ccc(CNC(=O)CSc2n[nH]c(N)n2)cc1,-14%
CCN(CC)CCOC(=O)c1ccc(NC(=O)CSc2nnc(-c3cccs3)n2CC)cc1,-13%
O=C(NNC(=O)c1sc2ccccc2c1Cl)Nc1ccc(Cl)cc1,27%
CC1CCC2(CC1)NC(=O)N(NC(=O)CCc1c[nH]c3ccccc13)C2=O (stereo not drawn),-19%
O=C(CC1SC(=Nc2ccccc2)N(CCCCO)C1=O)NCc1ccccc1 (stereo not drawn),9%
Cc1nnc2n1N=CC=C(c1ccccc1)S2,11%
COc1ccc(NC(=O)COC(=O)c2cc(OC)c(OC)c(OC)c2)c([N+](=O)[O-])c1,1%
CC(C)C(NC(=O)c1cccnc1)C(=O)O (stereo not drawn),79µM*

Next results follow:
SMILES,VDR inh
COc1ccc2oc(C(=O)OCC(=O)N3CCCCC3)c(C)c2c1,-7%
CCOC(=O)N1CCC(c2cc(=O)n(-c3ccccc3)[nH]2)CC1,4%
CC[C@H](NC(=O)c1c(C)c(-c2ccccc2)nc2ccccc12)c1ccccc1,-4%&-12%&-18%
N#CC1(NC(=O)CSc2nc3ccccc3s2)CCCCC1,-4%
CCN(C(=O)COC(=O)c1oc2ccc(OC)cc2c1C)C1CCS(=O)(=O)C1 (stereo not drawn),-14%
C/C(=N/NC(=O)c1ccncc1)c1cc2ccc(O)cc2oc1=O,3%
Cc1c(N=C2NN=C(c3c[nH]c4ccccc34)CS2)c(=O)n(-c2ccccc2)n1C,-3%
CCC(=O)O[C@@H]1[C@H](C)O[C@H](O[C@H]2[C@@H](N(C)C)[C@H](O)[C@@H](O[C@@H]3[C@@H](CC=O)C[C@@H](C)[C@@H](O)/C=C\C=C/C[C@@H](C)OC(=O)C[C@@H](OC(=O)CC)[C@H]3OC)O[C@H]2C)C[C@]1(C)O,-3%
Cn1c(=O)oc2cc(S(=O)(=O)N3CCOCC3)ccc21,0%
C=CCn1c(Sc2nnc(C)s2)nc2c1c(=O)[nH]c(=O)n2C,-12%
COc1ccccc1N1CCN(C(=O)c2nn(-c3ccccc3OC)c(=O)c3ccccc23)CC1,2%
COc1cc2cc(C(=O)N3CCN(Cc4ccc5c(c4)OCO5)CC3)[nH]c2cc1OC,15%

Further compounds follow.
SMILES,VDR inh
CCn1c(SCc2nc3ccccc3s2)nnc1-c1cccs1,5%
CN1C(=O)CC(N2CCC(c3nc4ccccc4s3)CC2)C1=O (stereo not drawn),3%
COc1ccc(CCN(C)C(=O)c2ccc(OCC(=O)N3CCOCC3)c(OC)c2)cc1OC,4%
c1ccc2c(c1)CC(CN1CCNCC1)O2 (stereo not drawn),-12%
Cc1ccc(-c2nnc3ccccc3c2C(=O)Nc2ccc(F)cc2)cc1,-3%
COc1ccc(CNC(=O)C2(c3ccc(Cl)cc3)CC2)cc1,-6%
Cc1ccc(NC(=O)CSc2nnc(/N=C/N(C)C)s2)cc1,-12%
CSc1ncc(C(=O)Nc2ccccc2C(=O)c2ccccc2)c(C(F)(F)F)n1,10%
O=C(Nc1ccc2c(c1)CCC2)c1ccc(Br)o1,-7%
COc1cc(OC)c2c(-c3cccc(-c4cccc(C)c4)c3)cc(=O)oc2c1,-10%&-3%
O=C(O)C1CC(c2ccccc2F)=NO1 (stereo not drawn),-19%
CCNc1ncc2ncc(=O)n(Cc3ccc(F)cc3)c2n1,?
Cc1cccc(NC(=O)CSc2ncc(-c3ccccc3)[nH]2)c1C,-16%
CCN(CC)S(=O)(=O)c1ccc(C(=O)NCC(=O)N/N=C/c2ccccc2OC)cc1,-13%
CC(=Nc1ccc(O)cc1)c1sc2ccccc2c1O,6%
c1ccc2c(c1)OCC(CNc1ncnc3nc[nH]c13)O2 (stereo not drawn),-17%
CCOC(=O)C(=NCCOC)NNc1cc(Cl)ccc1Cl,-10%
O=C(CN1C(=O)c2ccc([N+](=O)[O-])cc2C1=O)Nc1nnc(C2CC2)s1,-4%
CC(=O)c1c(C)[nH]c(C(=O)OCC(=O)Nc2cc(S(=O)(=O)N3CCCC3)ccc2Cl)c1C,5%
COc1ccc2c(=O)c3c(=O)n(CCc4ccccc4)c(C)nc3oc2c1,-4%
Cc1ccc(N(C)/N=C/c2ccc(Cl)cc2Cl)nn1,6%
CCCOc1nc2ccccc2cc1/C=C/C(=O)O,-14%
Cc1cc(OCC(=O)Nc2ccccc2F)nc(C(C)C)n1,6%
CNC(=O)c1cc(S(=O)(=O)NCc2ccncc2)ccc1OC,5%
CC(=O)Nc1ccc(NC(=O)CSc2nnc(NC(=O)C3CC3)s2)cc1,7%
Cc1ccccc1-c1cncnc1NC1CCNCC1,-5%
CC(C)CCNC(=O)c1nnc(Cc2ccc(Cl)cc2)o1,-4%
COC(=O)[C@H](CCSC)NC(=O)Nc1ccc(C(C)C)cc1,7%
O=C(Nc1ccc(Cl)c(Cl)c1)c1ccc(Cn2c(=O)[nH]c3ccsc3c2=O)cc1,-15%
Nc1ccccc1SC1CC(=O)N(c2ccccc2Cl)C1=O (stereo not drawn),-19%

Continuation:
SMILES,VDR inh
CCOC(=O)N1CCC(N2CCN(Cc3ccc(C)o3)C(CCO)C2)CC1 (stereo not drawn),-27%
Cc1ccnc(NC(=O)CCCOc2ccccc2)c1,-15%
COc1cc(C[C@H](C)[C@H](C)Cc2ccc3c(c2)OCO3)ccc1O,-18%
CCOc1ccc(NC(=O)CSc2nc3cccnc3n2CCOC)cc1,5%
CC1=C(C(=O)OCc2ccccc2)N2C(=O)[C@@H](NC(=O)COc3ccccc3)[C@H]2SC1,-18%
COc1ccc(-c2nc(CCNC(=O)c3cc(OC)c(OC)c(OC)c3)cs2)cc1,2%
O=C(COC(=O)CC1CC2CCC1C2)NCc1ccc(F)cc1 (stereo not drawn),10%
CC(C)(C)NC(=O)Cn1c(SCC(=O)NC2CCCC2)nc2ccccc21,-3%
CCOC(=O)C1CCN(C(=O)COC(=O)c2oc3ccccc3c2C)CC1,-9%
Cc1ccc(S(=O)(=O)N2CCC(C(=O)NCc3ccccc3Cl)CC2)cc1,1%&8%
COC(=O)c1sc2nc(C)nc(SCC(=O)N3CCC(C(=O)O)CC3)c2c1C,-3%
Cn1c(SCC(=O)NCc2ccc3c(c2)OCO3)nnc1-c1cccs1,-3%
COc1ccc(-c2nnc(C)c3nocc23)cc1,7%
O=C(NC1(C(F)(F)F)N=C2SCCN2C1=O)c1cccnc1 (stereo not drawn),-6%
COC(=O)c1ccc(Cl)c(NC(=O)CN2CCOCC2)c1,-13%
Cc1ccc(C(=O)OCCc2sc[n+](Cc3ccccc3)c2C)cc1,0%
CN(Cc1cnccn1)C(=O)CC1C(=O)NCCN1CC(c1ccccc1)c1ccccc1 (stereo not drawn),-6%
Cc1ccc(NC(=O)C/C(N)=N/OC(=O)Nc2cccc(Cl)c2)cc1,-14%
CCOC(=O)c1ccc(NC(=O)NCCOCCn2c(=O)oc3ccccc32)cc1,5%
Cc1onc(-c2ccccc2Cl)c1C(=O)OCC(=O)c1ccccc1,3%
C#CCNC(=O)C1=C[C@H](C2CCCCC2)C[C@H](OCCCCO)O1,-8%
O=C(COC(=O)COc1cccc(F)c1)NCC1CCCCC1,15%

A run of entries of the results above:
SMILES,VDR inh
COc1ccc(-c2nnc(C)c3nocc23)cc1,7%
O=C(NC1(C(F)(F)F)N=C2SCCN2C1=O)c1cccnc1 (stereo not drawn),-6%
COC(=O)c1ccc(Cl)c(NC(=O)CN2CCOCC2)c1,-13%
Cc1ccc(C(=O)OCCc2sc[n+](Cc3ccccc3)c2C)cc1,0%
CN(Cc1cnccn1)C(=O)CC1C(=O)NCCN1CC(c1ccccc1)c1ccccc1 (stereo not drawn),-6%
